Beta cell apopt – blocks beta cell apoptosis. AID 435005. INS-1E cytokine-induced death, ATP luminescence, 48 h; percent of positive-control rescue, neutral wells zero. actives 0.8% (n = 300,000). protection from apoptosis, % (concentration not given with the values);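 active = all replicates at 75% or more, or half of them and the mean; inconclusive = half reach 75% but not the mean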;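 note: 0% = cytokine-treated negative control wells and 100% = positive control rescue; higher means more ATP so stronger rescue from cytokine killing; wells of about 40 µL received 100 nL stock; the first replicate is given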
FGF22 binding – shifts melting point of recombinant human FGF22; Q9HCT0; recombinant FGF22 thermal shift, SYPRO orange fluorescence; percent of sucrose octasulfate shift, DMSO zero; calls only at 9.99 µM; actives 1.5% (n = 340,000); AID 651658;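 active = melting point raised past a set limit in the mean and every replicate; inconclusive = no clear call; three in four hits are not shown here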
T cruzi inh – T. cruzi replication inhibition. T. cruzi beta-gal in NIH3T3, luminescence, 90 h. inhibition, % (test concentration not listed). actives 1.4% (n = 300,000);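 active = mean inhibition across valid replicates above about 55%, limit read from the data; inconclusive = mean below that limit but half or more replicates reach it; inactive = mean below it, under half of replicates reach it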;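 note: signal also drops with host cell toxicity which is not excluded here; 0% = plate median of DMSO wells and 100% = zero luminescence signal; higher percent means less beta-gal luminescence so fewer parasites; stock transfer was 50 nL into about 50 µL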
Ecoli rRNA inh – inhibits bacterial ribosomal RNA function over humanized ribosomes; E. coli WT GFP vs humanized-ribosome RFP mutants, fluorescence, 24 h; stronger effect = lower value; DMSO median 0, no signal -100; actives 1.6% (n = 350,000); GFP signal change (wild-type ribosome), % (test concentration not listed);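 active = significant combined selectivity score with lowered wild-type GFP, culture density cut under 30%, mutant RFP and density less affected; inactive = any of these conditions unmet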; note: one replicate is shown; some compounds called inactive have numbers as strong as hits
RanGTP-Imp inh – inhibitors of RanGTP-importin-beta interaction, primary screen, biochemical, FRET, CFP-Ran, YFP-importin-beta, homogeneous. actives 1.1% (n = 300,000). cell-free CFP-Ran/YFP-importin-beta FRET ratio. inhibition, % (no concentration beside the values);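 active = most replicates above 15%; inconclusive = exactly half above 15%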;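 note: 0% = DMSO wells and 100% = Ran loaded with GDP instead of GTP; wells of about 40 µL received 100 nL stock; the first replicate is given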
Calb FLC – affects C. albicans growth with fluconazole. C. albicans CaCi-2 (fluconazole-resistant clinical isolate) + fluconazole, Alamar Blue growth, 48 h. growth inhibition, % (concentration not given with the values). actives 0.57% (n = 300,000);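 active = most replicates above 75%; inconclusive = exactly half above 75%; inactive = most below 75%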;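 note: all wells also contain fluconazole at 8 µg/ml as a sub-toxic cotreatment; 0% = median of DMSO wells and 100% = median of geldanamycin control wells; wells of about 8 µL received 7.5 nL stock; the first replicate is given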
ALR inh – blocks human ALR sulfhydryl oxidase activity | inhibition, % (test concentration not listed) | actives 3.8% (n = 290,000) | P55789 | purified ALR, DTT oxidation, H2O2 HRP-luminol luminescence | AID 485317;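 active = mean and each replicate at 75% or more; inconclusive = only one of the two met; inactive = neither met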;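 note: stock transfer was 7.5 nL into about 7.5 µL; 0% = neutral wells and 100% = wells with inactivated enzyme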
Target sequence (P55789 whole entry, looked up): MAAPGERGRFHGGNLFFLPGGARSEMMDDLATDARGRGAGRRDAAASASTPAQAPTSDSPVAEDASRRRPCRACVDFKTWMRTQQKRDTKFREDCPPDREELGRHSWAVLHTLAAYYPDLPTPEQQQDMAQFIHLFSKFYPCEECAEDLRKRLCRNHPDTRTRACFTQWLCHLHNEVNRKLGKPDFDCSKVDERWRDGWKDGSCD
MLL AF4-AF9 inh – inhibitors of human MLL-AF4/AF9 interaction; AlphaScreen, biotin-AF4 peptide binding to FLAG-AF9; inhibition, % at 10 µM; actives 0.47% (n = 350,000); P42568;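 active = every replicate reaching a set inhibition limit, whatever the replicate mean, cut at about 25% in these data; inconclusive = mean inhibition reaches that limit but some replicates miss it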;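 note: 0% = plate neutral control median and 100% = total signal loss; the record names both 10 and 1 µM as test concentration; the first replicate is given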
Target sequence (P42568 whole entry, looked up): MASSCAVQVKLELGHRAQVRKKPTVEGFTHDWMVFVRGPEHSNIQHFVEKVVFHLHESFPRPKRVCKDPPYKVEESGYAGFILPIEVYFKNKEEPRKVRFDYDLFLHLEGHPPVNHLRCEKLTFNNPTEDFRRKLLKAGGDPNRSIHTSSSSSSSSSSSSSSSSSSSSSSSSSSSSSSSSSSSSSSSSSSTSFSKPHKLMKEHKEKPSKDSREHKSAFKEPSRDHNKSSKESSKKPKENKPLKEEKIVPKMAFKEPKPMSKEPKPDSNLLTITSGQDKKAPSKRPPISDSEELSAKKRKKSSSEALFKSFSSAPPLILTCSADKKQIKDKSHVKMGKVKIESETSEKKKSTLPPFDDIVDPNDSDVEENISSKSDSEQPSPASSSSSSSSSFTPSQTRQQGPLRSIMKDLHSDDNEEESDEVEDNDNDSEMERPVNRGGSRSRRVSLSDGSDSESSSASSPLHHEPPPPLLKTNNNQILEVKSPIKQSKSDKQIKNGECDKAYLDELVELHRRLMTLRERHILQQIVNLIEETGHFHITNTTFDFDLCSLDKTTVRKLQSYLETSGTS
Ecoli rRNA inh OD600 – further read-out of Ecoli rRNA inh, marked with its call; OD600 change, %; measured here: OD600 growth;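 optical density of the mix in the first replicate; 0 = DMSO median and -100 = no signal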
Ecoli rRNA inh RFP – also measured in Ecoli rRNA inh; calls as there; RFP signal change, %; measured here: RFP humanized mutant strains;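 first replicate; 0 = DMSO median and -100 = no signal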
Starred values were filed as active, the others as inactive; i = inactive; ? = inconclusive; nt = no result given.

Screens by letter – A = Beta cell apopt; B = FGF22 binding; C = T cruzi inh; D = Ecoli rRNA inh; E = Ecoli rRNA inh OD600; F = Ecoli rRNA inh RFP; G = RanGTP-Imp inh; H = Calb FLC; I = ALR inh; J = MLL AF4-AF9 inh
[1] C/C(N)=C(/C#N)C(=O)COC(=O)c1cc2c(s1)CCC(C)C2 (stereo not drawn)
  A: -3	B: i	C: 1	D: -29*	E: -17*	F: 0.9*	G: 4.2	H: -7	I: 96*	J: 0.2
[2] COc1ccccc1NC(=O)c1c(Nc2ccccc2C)sc(C(=O)Nc2cccc(Cl)c2)c1N
  A: nt	B: i	C: 13	D: 5	E: 5	F: 5.0	G: ?	H: -2	I: -6	J: 2.6
[3] O=C(COC(=O)CNC(=O)c1ccccc1)Nc1cccc(Br)c1
  A: 6	B: nt	C: 2	D: nt	E: nt	F: nt	G: 2.5	H: -2	I: -24	J: nt
[4] O=[N+]([O-])c1ccc(Sc2nc3ccccc3o2)c([N+](=O)[O-])c1
  A: 48	B: i	C: 55*	D: -32	E: -30	F: -22	G: 2.0	H: 93*	I: -14	J: 13
[5] CCC1(CC)NC(=O)N(CC(=O)OCC(=O)Nc2ccc(F)c(F)c2F)C1=O
  A: -2	B: i	C: -1	D: 12	E: 9	F: 0.9	G: 0.9	H: 0	I: -3	J: -4.1
[6] Nc1nc(CC(=O)CSc2ccc(Cl)cc2)nc(Nc2ccc(F)cc2)n1
  A: 19	B: i	C: -8	D: 8	E: 9	F: -0.3	G: 3.8	H: -3	I: 24	J: 0.3
[7] CC1(C)NC(=O)N(CCCCOc2ccccc2[N+](=O)[O-])C1=O
  A: -2	B: nt	C: -9	D: nt	E: nt	F: nt	G: -2.1	H: 8	I: -9	J: nt
[8] CCCCCCC1CC(CSC(=N)N)OC1=O (stereo not drawn)
  A: -19	B: nt	C: -10	D: nt	E: nt	F: nt	G: -0.2	H: -1	I: 1	J: nt
[9] O=C(Cn1cc([N+](=O)[O-])cn1)Nc1ccc(Cn2cc(Br)cn2)cc1
  A: -2	B: i	C: 20	D: 3	E: -14	F: -0.7	G: 4.0	H: 5	I: 8	J: 4.7
[10] CC(=O)N1CCN(C(=O)COc2ccc(N(C)S(=O)(=O)c3cccs3)cc2)CC1
  A: -1	B: i	C: -13	D: 9	E: 8	F: -0.1	G: 0.1	H: 10	I: -12	J: -0.7
[11] Fc1ccc(CNc2nc3ccccc3n3cnnc23)cc1
  A: 1	B: i	C: 2	D: -10	E: -5	F: -0.1	G: 1.4	H: -7	I: nt	J: -1.0
[12] COC(=O)/C=c1/s/c(=C(/C#N)C(=O)N2CCOCC2)n(-c2ccccc2)c1=O
  A: -8	B: nt	C: -2	D: nt	E: nt	F: nt	G: -2.7	H: -1	I: 9	J: nt
[13] Cc1ccc(S(=O)(=O)N2CCN(C(=O)COC(=O)CCCOc3ccccc3)CC2)c(C)c1
  A: 0	B: i	C: nt	D: -1	E: 3	F: -2.8	G: nt	H: nt	I: nt	J: -2.4
[14] CC1CCc2c(C(=O)OCC(=O)Nc3cccc(S(=O)(=O)N4CCCCCC4)c3)csc2C1 (stereo not drawn)
  A: -3	B: i	C: 8	D: 22	E: 13	F: -0.8	G: 0.5	H: -4	I: -2	J: -0.1
[15] COc1ccc(C2C(C#N)=C(N)N(c3sc4c(c3C#N)CCCC4)C3=C2C(=O)CC(C)(C)C3)cc1OC (stereo not drawn)
  A: 0	B: nt	C: 21	D: nt	E: nt	F: nt	G: 8.1	H: 13	I: -13	J: nt
[16] Nc1c2c(nc3sc4c(c13)CCCCC4)CCCCC2
  A: 27	B: i	C: 3	D: 13	E: -5	F: -7.6	G: 3.4	H: 95*	I: -8	J: 4.5
[17] COC(=O)c1ccc(COc2ccccc2/C=N/O)o1
  A: nt	B: i	C: 4	D: -3	E: -4	F: 1.2	G: 0.7	H: -4	I: nt	J: 2.3
[18] Cc1ccoc1C(=O)N1CCCC(CO)(Cc2ccc(F)cc2)C1 (stereo not drawn)
  A: -4	B: i	C: 26	D: -6	E: -8	F: 0.7	G: -2.0	H: ?	I: -11	J: -3.0
[19] C/C=C/C=N/Nc1nc(-c2ccc([N+](=O)[O-])cc2)cs1
  A: -1	B: i	C: 22	D: -23	E: -2	F: -13	G: -1.3	H: -4	I: 56	J: 0.7
[20] O=C(NCc1nnc2c(C(F)(F)F)cc(Cl)cn12)c1ccc(Br)o1
  A: 0	B: i	C: -7	D: 2	E: 3	F: -1.7	G: 1.2	H: -12	I: 2	J: 8.4
[21] COc1ccc(/C=N/NC(=O)c2c([N+](=O)[O-])c(C)nn2C)cc1
  A: -3	B: i	C: 14	D: 11	E: 10	F: -1.1	G: 2.1	H: -7	I: -1	J: 1.1
[22] C=CCNc1nc(C(=O)OCC(=O)Nc2cc(S(C)(=O)=O)ccc2Cl)cs1
  A: -4	B: i	C: -15	D: -1	E: 4	F: 0.8	G: 4.2	H: 4	I: -12	J: -3.8
[23] COc1cccc(Nc2nc3ccc(OC)cc3s2)c1
  A: 2	B: i	C: 10	D: -54	E: -79	F: -13	G: 2.1	H: 43	I: 66	J: 6.3
[24] Cc1cc(NC(=O)c2cc(C(C)(C)C)oc2C)no1
  A: -6	B: i	C: nt	D: 8	E: 2	F: 14	G: 0.3	H: 40	I: 1	J: -1.7
[25] COc1ccc2c(CC(=O)Nc3nnc(C4CC4)s3)coc2c1
  A: -10	B: nt	C: 8	D: nt	E: nt	F: nt	G: -2.8	H: 18	I: -16	J: nt

In a second layout: ten of the compounds above.
nr	Molecule	Beta cell apopt	FGF22 binding	T cruzi inh	Ecoli rRNA inh	Ecoli rRNA inh OD600	Ecoli rRNA inh RFP	RanGTP-Imp inh	Calb FLC	ALR inh	MLL AF4-AF9 inh
16	Nc1c2c(nc3sc4c(c13)CCCCC4)CCCCC2	27	i	3	13	-5	-7.6	3.4	95*	-8	4.5
17	COC(=O)c1ccc(COc2ccccc2/C=N/O)o1	nt	i	4	-3	-4	1.2	0.7	-4	nt	2.3
18	Cc1ccoc1C(=O)N1CCCC(CO)(Cc2ccc(F)cc2)C1 (stereo not drawn)	-4	i	26	-6	-8	0.7	-2.0	?	-11	-3.0
19	C/C=C/C=N/Nc1nc(-c2ccc([N+](=O)[O-])cc2)cs1	-1	i	22	-23	-2	-13	-1.3	-4	56	0.7
20	O=C(NCc1nnc2c(C(F)(F)F)cc(Cl)cn12)c1ccc(Br)o1	0	i	-7	2	3	-1.7	1.2	-12	2	8.4
21	COc1ccc(/C=N/NC(=O)c2c([N+](=O)[O-])c(C)nn2C)cc1	-3	i	14	11	10	-1.1	2.1	-7	-1	1.1
22	C=CCNc1nc(C(=O)OCC(=O)Nc2cc(S(C)(=O)=O)ccc2Cl)cs1	-4	i	-15	-1	4	0.8	4.2	4	-12	-3.8
23	COc1cccc(Nc2nc3ccc(OC)cc3s2)c1	2	i	10	-54	-79	-13	2.1	43	66	6.3
24	Cc1cc(NC(=O)c2cc(C(C)(C)C)oc2C)no1	-6	i	nt	8	2	14	0.3	40	1	-1.7
25	COc1ccc2c(CC(=O)Nc3nnc(C4CC4)s3)coc2c1	-10	nt	8	nt	nt	nt	-2.8	18	-16	nt

New compounds follow.
Screens by letter – A = Beta cell apopt; B = FGF22 binding; C = T cruzi inh; D = Ecoli rRNA inh; E = Ecoli rRNA inh OD600; F = Ecoli rRNA inh RFP; G = RanGTP-Imp inh; H = Calb FLC; I = ALR inh; J = MLL AF4-AF9 inh
[26] O=C(N/N=C/c1ccco1)c1ccccn1
  A: -1	B: nt	C: -10	D: nt	E: nt	F: nt	G: 2.3	H: ?	I: 0	J: nt
[27] O=C(NCc1cccc(Cl)c1)C1CCN(S(=O)(=O)c2ccc(F)cc2)CC1
  A: 5	B: i	C: 3	D: -6	E: -15	F: -1.0	G: 0.4	H: 2	I: 5	J: -5.1
[28] CCC(=O)NC(=S)Nc1ccccc1C(=O)NC1CCCCC1
  A: -7	B: nt	C: -4	D: nt	E: nt	F: nt	G: 4.1	H: 8	I: -5	J: nt
[29] CCN(CC)S(=O)(=O)c1ccc(NC(=O)c2ccc(NS(C)(=O)=O)cc2)cc1
  A: -6	B: nt	C: -5	D: nt	E: nt	F: nt	G: 3.4	H: -5	I: -1	J: nt
[30] COc1cc(NC(=O)CN(c2ccc(C)cc2)S(=O)(=O)c2c(C)noc2C)cc(OC)c1
  A: 12	B: i	C: 30	D: -8	E: -31	F: 4.9	G: -0.3	H: 6	I: -3	J: 5.4

With a hit mark in ALR inh (from the list above):
entry	SMILES	FGF22 binding	Ecoli rRNA inh	Ecoli rRNA inh OD600	Ecoli rRNA inh RFP	RanGTP-Imp inh	ALR inh	MLL AF4-AF9 inh
1	C/C(N)=C(/C#N)C(=O)COC(=O)c1cc2c(s1)CCC(C)C2 (stereo not drawn)	i	-29*	-17*	0.9*	4.2	96*	0.2

High-throughput results as filed in PubChem BioAssay.

Some of the compounds tested; count on the stated rates, not on these rows.
